KCNQ2 enhance = enhances the rat KCNQ2 potassium channel; B-score at 10 µM; 0.54% of 310,000 active; O88943; CHO-K1 KCNQ2, FluxOR thallium flux fluorescence; hits give high values; AID 2239;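 active = fluorescence ratio B-score at least 3 SD of library B-scores, with initial fluorescence B-score within 3 SD, cut at about 5.3 in these data; same plate scores as AID 2156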;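 also: B-score of peak minus minimum over baseline fluorescence ratio after K+ and Tl+ stimulus; positive B-score means potentiation of KCNQ2 with more thallium influx and brighter signal; only the inactives scoring about 0 or higher are listed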
Target sequence (O88943 whole entry, looked up): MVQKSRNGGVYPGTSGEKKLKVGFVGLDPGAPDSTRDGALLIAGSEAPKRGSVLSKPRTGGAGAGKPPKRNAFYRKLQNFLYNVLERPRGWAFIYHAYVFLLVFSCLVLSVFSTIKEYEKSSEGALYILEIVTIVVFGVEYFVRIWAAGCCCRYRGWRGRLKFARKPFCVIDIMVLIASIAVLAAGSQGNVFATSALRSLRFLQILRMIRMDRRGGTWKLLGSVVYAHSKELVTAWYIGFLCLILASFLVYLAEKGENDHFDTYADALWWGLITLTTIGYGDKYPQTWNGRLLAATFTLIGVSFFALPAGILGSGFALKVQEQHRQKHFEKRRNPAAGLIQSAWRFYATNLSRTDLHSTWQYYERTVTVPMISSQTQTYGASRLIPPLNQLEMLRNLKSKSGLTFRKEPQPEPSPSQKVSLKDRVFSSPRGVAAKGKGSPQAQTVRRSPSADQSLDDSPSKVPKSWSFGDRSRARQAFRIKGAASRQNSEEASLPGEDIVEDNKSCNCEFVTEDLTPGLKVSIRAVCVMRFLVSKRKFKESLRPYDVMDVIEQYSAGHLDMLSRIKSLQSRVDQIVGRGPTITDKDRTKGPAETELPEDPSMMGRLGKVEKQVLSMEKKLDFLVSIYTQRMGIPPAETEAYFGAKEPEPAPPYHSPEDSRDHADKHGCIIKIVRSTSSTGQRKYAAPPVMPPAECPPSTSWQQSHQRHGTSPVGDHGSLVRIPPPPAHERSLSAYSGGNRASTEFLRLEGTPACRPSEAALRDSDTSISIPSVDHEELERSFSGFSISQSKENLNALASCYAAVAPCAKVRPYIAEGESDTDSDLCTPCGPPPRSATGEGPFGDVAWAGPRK
KCNQ2 enhance baseline = also measured in KCNQ2 enhance; calls as there; B-score; compound at 10 µM; measured here: initial fluorescence intensity artifact check;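 brightness before thallium and not channel activity; 0 = typical well and far values either way flag optical interference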
The depositor's hits bear a star. These rows are one share of the data. The share of hits here may be higher or lower than overall.

smiles	KCNQ2 enhance	KCNQ2 enhance baseline
FC(F)(F)c1ccc(Sc2nnc(-c3cccs3)n2CC2CCCO2)nc1 (stereo unspecified)	0.17	-1.1
CN(C)CCN(C(=O)/C=C/c1cccs1)c1nc2ccc(F)cc2s1	0.09	1
N#C/C(=C\c1cn(CCOc2ccccc2)c2ccccc12)C(=O)NCc1cccs1	1.3	-0.8
CCN(CC)S(=O)(=O)c1cc(C(=O)OC)ccc1Cl	1.1	-0.08
COc1ccc(Cc2nnc(NC(=O)c3cccc(F)c3)s2)cc1OC	1.4	0.61
CCCCNC(=O)O[C@H]1C[C@@H]2CCN3C(=O)CCC(C)(C)[C@H](C1)[C@H]23	1.3	1.4
Cc1ccc(Cl)cc1NS(=O)(=O)c1cc2[nH]c(=O)c(=O)[nH]c2cc1C	1.5	0.04
Cc1ccc(CN(C(=O)c2cc(=O)c3cc(C)cc(C)c3o2)C2CCS(=O)(=O)C2)cc1 (stereo unspecified)	0.04	2.1
COc1cccc(NC(=O)CCC(=O)NCc2ccco2)c1	0.22	-0.79
Cc1ccc(NC(=O)c2ccc(C(C)(C)C)cc2)cc1[N+](=O)[O-]	0.06	0.73
CC(=O)c1ccc(N2CCN(Cc3nc(Cc4ccccc4)no3)CC2)cc1	0.42	-0.09
CCCn1c(=O)c(-c2ccccc2)c(O)c2ccccc21	1.5	-0.27
Cc1noc(C)c1S(=O)(=O)N1CCC(C(=O)N2CCC(C)CC2)CC1	0.63	2
Cc1c(OCC(=O)OC(C)C)ccc2c3c(c(=O)oc12)CCC3	0.64	-0.7
Cc1ccc(C(=O)N/N=C\c2ccc(OC(=O)c3cccs3)cc2)cn1	1.4	1.8
COc1ccccc1CNC(=O)COC(=O)COc1ccccc1Cc1ccccc1	0.28	-1.1
CCOC(=O)c1ccccc1NC(=O)c1ccc(N(C)S(C)(=O)=O)cc1	0.5	1.4
CC(=O)c1cccc(N(C(=O)CNC(=O)c2ccco2)C(C(=O)NCc2ccco2)c2ccccc2)c1 (stereo unspecified)	0.04	-1.2
COC(=O)c1cc(NC(=O)Cc2ccc(OC)c(OC)c2)cc(C(=O)OC)c1	0.6	-1.1
Cc1ccc(S(=O)(=O)NNC(=O)C(O)(c2ccccc2)c2ccccc2)cc1	0.38	0.12
CCN(CC)C(=O)N1CCN(C(=O)c2ccc(C)cn2)CC1	0.24	-0.32
CSc1nnc(C)c(=O)n1COC(=O)COc1ccccc1	0.01	0.01
Cc1sc2ncn(CC(=O)NCCN3CCOCC3)c(=O)c2c1S(=O)(=O)N1CCC(C)CC1	0.04	0
Cc1ccc(C(=O)CCC(=O)Nc2ccc(Cl)c(S(=O)(=O)Nc3cccc(Cl)c3)c2)cc1	0.01	0.74
O=C(CCS(=O)(=O)c1ccc2c(c1)NC(=O)CO2)NCCc1ccccc1	2.2	0.65

By substructure: the entries above with a furan ring, fused or not (2)
smiles	KCNQ2 enhance	KCNQ2 enhance baseline
COc1cccc(NC(=O)CCC(=O)NCc2ccco2)c1	0.22	-0.79
CC(=O)c1cccc(N(C(=O)CNC(=O)c2ccco2)C(C(=O)NCc2ccco2)c2ccccc2)c1 (stereo unspecified)	0.04	-1.2

Next compounds follow.
smiles	KCNQ2 enhance	KCNQ2 enhance baseline
CCOc1ccc(/C=N/NS(=O)(=O)c2ccc(C)cc2)cc1OC	1.1	0.29
O=C(CCn1c(=O)sc2ccccc21)NCc1ccco1	0.73	-0.12
O=C(CCSCc1cccc(F)c1)NCc1ccc(F)cc1	2	-0.21
CCOCC(=O)Nc1ccc(-c2cn3cccnc3n2)cc1	0.62	-0.29
CCS(=O)(=O)N1CCN(c2ccc([N+](=O)[O-])c(NCc3cccnc3)c2)CC1	1.9	-1.4
COc1ccc(CN2C(=O)CN=C2Nc2cc(C)ccc2C)cc1	15*	-0.04*
COc1ccc(S(=O)(=O)Nc2ccc(C(N)=O)cc2)cc1C(=O)N1CCCCCC1	0.49	-0.3
COc1ccc(N(CC(=O)NCc2cccs2)S(=O)(=O)c2cccnc2)cc1	0.02	-0.82
COc1ccccc1C1NC(=O)NC(C)=C1C(=O)OC1CCCCC1 (stereo unspecified)	0.08	-1
CS(=O)(=O)N(CCc1ccccc1)CC(N)=O	0.23	-1.3
Cc1nnc(NC(=O)CCS(=O)(=O)c2ccccc2)s1	0.34	-0.07
Cc1cc(C)cc(-n2c(=O)c3ccccc3n(CC(=O)NCC3CCCO3)c2=O)c1 (stereo unspecified)	0.74	-0.1
Cc1ccc(NC(=S)NC(=O)C2CC2)cc1Cl	0.63	-0.6
CCc1c(C)sc(NC(=O)OC)c1C(=O)N1CCCCC1	1.1	2.8
CCc1cc2c(=O)c(-c3nc4ccccc4n3C)coc2c(CN2CCCCC2C)c1O (stereo unspecified)	0.74	0.03
CCOC(=O)/C(N=Nc1ccc(C(=O)O)cc1[N+](=O)[O-])=C(\C)O	1.1	-0.38
Fc1ccc(NC(=S)Nc2cccc3ccccc23)cc1F	1.2	0.89
CC#CCN1c2ccccc2[C@]23C[C@@H](C(=O)OC)N(C(=O)c4ccc(Br)cc4)C2=NC(C(=O)OC)=C(C(=O)OC)[C@H]13	0.27	-2.8
COc1ccc(-c2cc(C(=O)N3CCN(c4ccccc4)CC3)no2)cc1OC	0.02	-0.82
COc1ccccc1NC(=O)C(C)OC(=O)c1ccc(-n2cnnn2)cc1 (stereo unspecified)	0.01	0
CCN1C(=O)c2n[nH]c(C(=O)OC)c2C1=O	0.88	0.38
CCCn1c(N2CCN(C(=O)Nc3ccc(Cl)cc3)CC2)nc2ccccc21	0.06	-0.17
Cc1cc(C)cc(N(C(=O)CCC(=O)Nc2cc(C)on2)C(C(=O)NC2CCCC2)c2ccco2)c1 (stereo unspecified)	1.2	0.66
COc1cc(/C=N/NC(=O)c2cc[n+]([O-])cc2)cc(OC)c1OC	0.17	-0.02
CCN(CC)CCOCCOc1ccc(Cl)c2ccccc12	0.99	0.11

smiles	KCNQ2 enhance	KCNQ2 enhance baseline
COC(=O)c1[nH]c2ccccc2c1CN1CCOCC1	0.94	-1.8
Cc1c(/C=N\NC(=O)c2c[nH]c3ccccc23)cnn1C	0.35	1.4
Cc1cccc(NC(=O)CNC(=O)CN2C(=O)NC3(CCCc4ccccc43)C2=O)c1C (stereo unspecified)	1.3	0.83
CCCc1ccc(OCc2nc(-c3ccc(NC(=O)c4ccco4)cc3)no2)cc1	0.35	-0.68
O=C(COC(=O)C1C2CC3OC(=O)C1C3C2)Nc1ccc(Cl)cc1 (stereo unspecified)	5	0.13
CCCCCOC(=O)Nc1ccc(S(=O)(=O)Nc2cccc([N+](=O)[O-])c2)cc1	1.4	-0.66
Cc1cc(NC(=O)CCN2CCN(CCO)CC2)ccc1Br	0.83	1.4
CCCCNc1nc2ccccc2nc1NS(=O)(=O)c1cccs1	1.9	-2.2
Cn1cc([N+](=O)[O-])c(C(=O)NCc2cc3cc(Cl)ccc3[nH]2)n1	3.8	-0.16
CC1CCc2c(C(=O)Nc3nccs3)csc2C1 (stereo unspecified)	3.2	0.79
Cc1ccc(CNC(=O)c2cn(C)c3ccc(S(=O)(=O)N4CCOCC4)cc3c2=O)cc1	1.4	-0.23
CCn1nnnc1SCC(=O)Nc1ccc(OC)cc1	1.4	0.44
NC(=O)Cn1c(=O)n(CCCC(=O)NC2CCN(Cc3ccccc3)CC2)c(=O)c2ccccc21	0.34	-0.41
Cc1ccc(OC2CCN(C(=O)C3CCC(=O)N(C4CC4)C3)CC2)cc1 (stereo unspecified)	1.5	1
CC(=O)c1c(C)[nH]c(C(=O)OCc2nnc(-c3ccccc3)o2)c1C	0.05	-0.94
Cc1ccccc1-n1nnnc1SC(C)C(=O)Nc1ccc(N2CCN(C)CC2)cc1 (stereo unspecified)	0.03	-0.96
CC(C)Nc1nnc(SC(C)C(=O)Nc2ccc(Cl)cn2)s1 (stereo unspecified)	0.55	-1.9
COc1cc(OC)cc(-c2cc3nc(C)c(CCC(=O)Nc4nc(C)cs4)c(C)n3n2)c1	0.86	-1.4
CCCCCNC(=O)CCc1ccccc1	0.05	-0.56
O=C(COc1ccc2ccccc2c1)Nc1nnc(-c2ccco2)s1	0.05	0.19
Brc1ccc(CSc2ccc(-c3ccco3)nn2)cc1	0.03	2.2
COc1cc(OC)cc(-c2nc3nc(C)c(CCC(=O)NCC(OC)OC)c(C)n3n2)c1	0.17	0.95
CCOC(=O)Nc1ccc(Oc2ccccc2)cc1	0.58	0.2
O=C(NCCN1CCN(C(=O)c2ccc([N+](=O)[O-])cc2)CC1)C(=O)Nc1ccc(F)cc1	1.5	1.8
CCN(C(=O)C1CCCN1S(=O)(=O)c1ccc2c(c1)n(C)c(=O)c(=O)n2C)c1ccccc1 (stereo unspecified)	1.6	0.84

Reformatted with values ahead of the structure: part of the list above.
KCNQ2 enhance | KCNQ2 enhance baseline | SMILES
3.2 | 0.79 | CC1CCc2c(C(=O)Nc3nccs3)csc2C1 (stereo unspecified)
1.4 | -0.23 | Cc1ccc(CNC(=O)c2cn(C)c3ccc(S(=O)(=O)N4CCOCC4)cc3c2=O)cc1

Taken from above:
KCNQ2 enhance, CC1CCc2c(C(=O)Nc3nccs3)csc2C1 (stereo unspecified) = 3.2
KCNQ2 enhance baseline, Cc1ccc(CNC(=O)c2cn(C)c3ccc(S(=O)(=O)N4CCOCC4)cc3c2=O)cc1 = -0.23
KCNQ2 enhance baseline, Cc1ccc(OC2CCN(C(=O)C3CCC(=O)N(C4CC4)C3)CC2)cc1 (stereo unspecified) = 1

(further entries)
smiles	KCNQ2 enhance	KCNQ2 enhance baseline
O=C(CC12CC3CC(CC(C3)C1)C2)Nc1cccc2ncccc12	11*	-0.07*
CCNC(=S)Nc1ccc2ncoc2c1	1.8	1.2
Cc1cc(C)c(N(C(=O)c2csnn2)C(C(=O)NC(C)(C)C)c2ccncc2)c(C)c1 (stereo unspecified)	0.39	-0.63
O=C(Nc1nnc(S(=O)(=O)N2CCCCCC2)s1)c1ccccc1Cl	0.01	-3.4
CCCCc1ncc(CN2CCC(n3nccc3NC(=O)c3ccccc3OC)CC2)[nH]1	0.89	0.65
N#CCCN(C(=O)COC(=O)Cc1ccc(Br)cc1)c1ccccc1	0.08	0.52
Cc1ccc(-c2nnn(CC(=O)NCCc3ccc4c(c3)OCO4)n2)cc1	0.25	0.83
COc1ccc(NC(=O)C(C)NS(=O)(=O)c2ccccc2)cc1Cl (stereo unspecified)	0.52	1.4
CC(=O)C1C(c2ccc(C)cc2)c2c(noc2C)CC1(C)O (stereo unspecified)	0.9	0.12
CC1CCc2sc3ncnc(N4CCOCC4)c3c2C1 (stereo unspecified)	0.99	-1.1
C#CCN(C#N)c1nc(NCC)nc(NC(C)C)n1	1.6	-0.01
CN1CCN(S(=O)(=O)c2cccc(C(=O)N(C)CC(=O)Nc3ccc(F)c(F)c3F)c2)CC1	0.62	-0.39
CC(C)c1nnc(NC(=O)Cn2nc(-c3ccc4c(c3)OCCO4)ccc2=O)s1	0.39	0.08
CC(C)(C)NC(=O)COC(=O)c1ccc(S(=O)(=O)N2CCCC2)cc1	0.16	0.66
Cc1nn(-c2nc3ccccc3[nH]2)c(=O)c2ccccc12	0.39	-1.3
CC(C)OC(=O)CSc1nnc(-c2ccccc2)n1N	0.49	-2.1
O=C(c1ccco1)N1CCN(C(=O)c2cc3c(s2)-c2ccccc2OC3)CC1	0.99	1.4
COCC1CCN(Cc2cn[nH]c2-c2ccc(OC)cc2F)C1 (stereo unspecified)	1.4	-0.01
O=C(Nc1ccccc1C(=O)N/N=C/c1ccco1)c1ccccc1	0.67	-0.73
CC1CCCCC1NC(=O)CCNC(=O)N1CC(=O)Nc2ccccc21 (stereo unspecified)	0.28	-0.42
COC(=O)c1sc(SC)c(S(=O)(=O)C(C)C)c1N/N=C(\C#N)C(=O)c1ccccc1	0.9	-3.4
CCOC(=O)C1CCCN(c2cc(=O)n(C3CCCCC3)c(=O)[nH]2)C1 (stereo unspecified)	0.37	0.2
O=C(Nc1ccnc(-c2ccncc2)n1)c1ccc(F)cc1	1.3	0.18
Cc1cccc(N2CCN(C(=O)Cn3c(=O)[nH]c4ccsc4c3=O)CC2C)c1 (stereo unspecified)	0.75	0.8
COc1ccc(S(=O)(=O)Nc2cc(C)ccn2)cc1	0.58	-2

smiles	KCNQ2 enhance	KCNQ2 enhance baseline
CC(C)NC(=O)C1CC=CCC1C(=O)O (stereo unspecified)	0.07	2.6
O=C(c1cccc(-c2ccc(O)cc2)c1)N1CCN(c2ccc(F)cc2)CC1	0.53	-0.51
Cc1ccc(O)c(C(=O)c2cc(C#N)c(=O)n(CC3CCCO3)c2)c1 (stereo unspecified)	0.99	-0.78
CCCc1cc2c(=O)n(NC(=O)c3nn(C)cc3[N+](=O)[O-])c(C)nc2s1	0.82	1
S=c1[nH]nc(-c2ccccc2)n1CC1CCCO1 (stereo unspecified)	1.5	0.23
CN(C)c1nc(SCCOC(=O)c2ccccc2)nc(N(C)C)n1	0.55	1.2
COc1ccc(OCCn2nnc(-c3ccc(Cl)cc3)n2)cc1	0.67	0.12
O=C(c1nc2ccccn2c1CNCCCn1cccn1)N1CCCC1	3	-0.37
CCOc1cc(CNCc2cccnc2)ccc1OCC(=O)NC(C)(C)C	0.31	1.8
Cc1cc(C)cc(N(CC(=O)NCc2ccco2)C(=O)CCC(=O)Nc2nccs2)c1	0.01	0.67
COc1cc(CN(C)Cc2cccc3ccccc23)cc([N+](=O)[O-])c1O	2	1.5
CC(/C=N/n1c(C2CCCCC2)n[nH]c1=S)=C\c1ccccc1	8.3*	-1.1*
COc1cccc(OC(=O)c2cc3ccccc3oc2=O)c1	0.26	-0.88
CCN(CC)C(=O)CSc1nc(C)cc(C)n1	0.75	-0.04
CC(C)(C)C(=O)Nc1nc(=S)ss1	0.64	-0.22
CCCN1CCN(C(=S)Nc2ccc3nc(N4CCN(CC)CC4)cc(C)c3c2)CC1	1.9	-1.5
